LANA-H2B inh: blocks KSHV LANA binding to histone H2A/H2B; Q9QR71; cell-free LANA-H2A/H2B peptide, fluorescence polarization; inhibition, % (concentration not given with the values); 320,000 tested, 0.6% active; AID 2629; in the data active = inhibition mostly above about 10%, no sharp cut-off; inactive = mostly below about 6.7%;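 also: stock transfer was 7.5 nL into about 10 µL; 0% = median of vehicle wells and 100% = median of positive control wells; one replicate is shown; the record names a cut of 25% in any replicate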
Calb FLC: C. albicans growth modulation with fluconazole | C. albicans CaCi-2 (fluconazole-resistant clinical isolate) + fluconazole, Alamar Blue growth, 48 h | growth inhibition, % (no concentration beside the values) | 300,000 tested, 0.57% active | AID 1979;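 active = most replicates above 75%; inconclusive = exactly half above 75%; inactive = most below 75%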;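 also: all wells also contain fluconazole at 8 µg/ml as a sub-toxic cotreatment; 0% = median of DMSO wells and 100% = median of geldanamycin control wells; wells of about 8 µL received 7.5 nL stock; the first replicate is given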
A1 inh: inhibitors of the anti-apoptotic protein A1, read as caspase activation. 330,000 tested, 0.066% active. caspase activation, % (concentration not given with the values). AID 2462. MEF A1-2A-BIM cells, Caspase-Glo 3/7 luminescence, 3 h; percent of clofoctol response, vehicle zero;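 active = over half of replicate activation scores above 10%, or exactly half above 10 with the replicate mean above 10; inconclusive = replicate mean below 10 yet half the replicates above 10; inactive = over half of replicates below 10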;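 also: wells of about 30 µL received 50 nL stock; many hits fall short of the cut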
T cruzi repl: T. cruzi replication inhibition; T. cruzi beta-gal in NIH3T3, luminescence, 90 h; inhibition, % (concentration not given with the values); 300,000 tested, 1.4% active; AID 1885;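 active = mean inhibition across valid replicates above about 55%, limit read from the data; inconclusive = mean below that limit but half or more replicates reach it; inactive = mean below it, under half of replicates reach it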;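 also: signal also drops with host cell toxicity which is not excluded here; 0% = plate median of DMSO wells and 100% = zero luminescence signal; higher percent means less beta-gal luminescence so fewer parasites; stock transfer was 50 nL into about 50 µL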
rRNA inh HTS: inhibits bacterial ribosomal RNA function over humanized ribosomes | E. coli WT GFP vs humanized-ribosome RFP mutants, fluorescence, 24 h; hits give low values; DMSO median 0, no signal -100 | GFP signal change (wild-type ribosome), % (no concentration beside the values) | 350,000 tested, 1.6% active | AID 720706;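 active = significant combined selectivity score with lowered wild-type GFP, culture density cut under 30%, mutant RFP and density less affected; inactive = any of these conditions unmet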; also: one replicate is shown; some compounds called inactive have numbers as strong as hits
Beta2AR agonist: human beta-2 adrenergic receptor agonism by FAP. P07550. AID 504454. 340,000 tested, 0.43% active. response, % (test concentration not listed). Am2.2-beta2AR cells, FAP receptor internalization, flow cytometry; reference of the scale not given here;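 active = response above a set limit, near 3 SD of response in nonfluorescent compounds, cut at about 42% in these data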;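 also: stock transfer was 100 nL into about 11 µL; a reference agonist was the positive control; negative values mostly stem from fluorescent compounds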
Target sequence (P07550 whole entry, looked up): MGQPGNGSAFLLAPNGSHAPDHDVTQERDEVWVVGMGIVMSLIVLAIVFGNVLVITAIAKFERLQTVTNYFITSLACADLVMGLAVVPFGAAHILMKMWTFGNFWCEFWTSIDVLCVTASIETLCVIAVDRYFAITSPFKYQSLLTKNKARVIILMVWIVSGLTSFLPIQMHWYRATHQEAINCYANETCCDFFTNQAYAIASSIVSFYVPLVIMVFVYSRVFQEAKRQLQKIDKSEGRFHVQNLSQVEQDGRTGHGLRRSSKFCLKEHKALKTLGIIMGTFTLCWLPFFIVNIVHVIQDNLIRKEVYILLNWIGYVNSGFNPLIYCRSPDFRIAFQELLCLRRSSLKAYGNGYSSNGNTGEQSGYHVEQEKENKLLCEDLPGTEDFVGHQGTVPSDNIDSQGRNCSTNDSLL
Beta apoptosis: blocks beta cell apoptosis; INS-1E cytokine-induced death, ATP luminescence, 48 h; percent of positive-control rescue, neutral wells zero; protection from apoptosis, % (no concentration beside the values); 300,000 tested, 0.8% active; AID 435005;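 active = all replicates at 75% or more, or half of them and the mean; inconclusive = half reach 75% but not the mean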;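 also: 0% = cytokine-treated negative control wells and 100% = positive control rescue; higher means more ATP so stronger rescue from cytokine killing; wells of about 40 µL received 100 nL stock; the first replicate is given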
ALR inh: blocks human ALR sulfhydryl oxidase activity. AID 485317. purified ALR, DTT oxidation, H2O2 HRP-luminol luminescence. P55789. inhibition, % (test concentration not listed). 290,000 tested, 3.8% active;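 active = mean and each replicate at 75% or more; inconclusive = only one of the two met; inactive = neither met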;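 also: stock transfer was 7.5 nL into about 7.5 µL; 0% = neutral wells and 100% = wells with inactivated enzyme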
Target sequence (P55789 whole entry, looked up): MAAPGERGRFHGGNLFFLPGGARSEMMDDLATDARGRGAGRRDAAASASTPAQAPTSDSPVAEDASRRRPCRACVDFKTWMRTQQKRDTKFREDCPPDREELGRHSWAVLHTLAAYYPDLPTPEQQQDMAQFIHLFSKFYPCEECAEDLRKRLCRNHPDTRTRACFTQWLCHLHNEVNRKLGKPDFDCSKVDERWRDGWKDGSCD
rRNA inh HTS OD600: further read-out of rRNA inh HTS, marked with its call; OD600 change, %; measured here: OD600 growth;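 optical density of the mix in the first replicate; 0 = DMSO median and -100 = no signal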
rRNA inh HTS RFP: also measured in rRNA inh HTS; calls as there; RFP signal change, %; measured here: RFP humanized mutant strains;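 first replicate; 0 = DMSO median and -100 = no signal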
An asterisk follows results filed as active; ? = inconclusive; nt = not tested or not shown. Some of the compounds tested; the hit share may differ from the screen's.

SMILES | LANA-H2B inh | Calb FLC | A1 inh | T cruzi repl | rRNA inh HTS | rRNA inh HTS OD600 | rRNA inh HTS RFP | Beta2AR agonist | Beta apoptosis | ALR inh
COc1ccc(S(=O)(=O)CCc2nnc(NC(=O)c3cccs3)s2)cc1 | 0.7 | -11.8 | 0.5 | -13.4 | nt | nt | nt | -10.7 | -2.1 | -0.4
O=C(Cc1cn2ccsc2n1)Nc1nc2c(s1)CCCC2 | 3.3 | -10.6 | 0.0 | 3.7 | nt | nt | nt | -3.4 | 10.0 | 2.0
N#CCSc1ccc(-c2nc3ccccc3[nH]2)cn1 | -1.5 | 9.0 | -8.5 | -7.3 | -29.5 | -44.8 | -3.6 | -4.2 | 21.5 | ?
COc1cc(/C=C(/NC(=O)c2ccccc2)C(=O)N2CCOCC2)c([N+](=O)[O-])cc1OC | -3.8 | -5.3 | -1.2 | 1.2 | 6.6 | 4.7 | 1.1 | -1.3 | -0.9 | -30.5
Cc1ccc(/C([O-])=C(/C(=S)NCc2ccco2)[n+]2ccccc2)cc1[N+](=O)[O-] | -0.9 | -9.1 | -0.2 | -5.3 | 9.8 | 5.1 | 1.2 | 6.6 | 0.4 | -8.2
CCOc1ccccc1CNC(=O)c1ccc(Sc2ccc(Cl)cc2)c(NC(C)=O)c1 | -0.4 | -9.9 | 0.1 | -4.7 | -10.2 | -8.4 | -7.1 | 5.5 | -0.4 | -7.6
CCn1c(SCC(=O)N2CCC(C)CC2)nnc1-c1ccco1 | 3.4 | -7.1 | 0.4 | 3.7 | 10.2 | 15.8 | 3.2 | -6.6 | -0.7 | 2.8
COc1ccc2[nH]c(C)c(C(=O)CN3CCOCC3)c2c1 | 2.9 | 3.3 | -0.5 | -2.9 | nt | nt | nt | -7.9 | -3.5 | -4.4
Cc1ccc(C)c(N2CCN(CCCNC(=O)Cn3cc4c(n3)CCCCC4)CC2)c1 | -3.2 | -22.6 | -0.2 | 27.6 | -36.7 | -53.3 | -6.9 | 20.5 | 9.9 | -26.3
CC(=O)Oc1ccc2cc(-c3ccccc3)c(=O)oc2c1 | -0.6 | 0.0 | -12.2 | -28.9 | 8.4 | 8.2 | -3.7 | 0.8 | -1.5 | 45.9
CCc1c(C)sc(NC(=O)c2cc(-c3cc(OC)ccc3OC)on2)c1C#N | -2.0 | -2.3 | -0.8 | -0.6 | nt | nt | nt | 2.7 | -5.4 | -3.7
CCOCCn1c(SC(C)C(C)=O)nc2c1c(=O)[nH]c(=O)n2C (centres undefined) | 2.1 | -6.3 | 0.6 | -20.9 | 13.2 | 10.3 | 3.5 | -4.6 | 2.3 | -6.3
CCC(Cc1ccccc1)NC(=O)CSc1ccsc1[N+](=O)[O-] (centres undefined) | -3.3 | 3.3 | 0.9 | -16.5 | nt | nt | nt | -1.5 | 2.7 | 37.9
O=C(Nc1ccccc1)C1=C[C@@H](C2CC2)C[C@@H](OCc2ccc(CO)cc2)O1 | 0.6 | 0.5 | 0.0 | 14.9 | -5.9 | -0.9 | -3.2 | -8.2 | -4.6 | nt
CCOC(=O)Cc1csc(NC(=O)Cc2ccccc2[N+](=O)[O-])n1 | -2.8 | -7.7 | 1.9 | -8.8 | -4.2 | -7.7 | -5.6 | 3.7 | 0.0 | -10.3
O=S(=O)(Nc1ccon1)c1cc(Cl)ccc1Cl | -0.2 | 4.8 | 2.1 | -7.6 | -2.5 | 11.9 | 0.1 | -6.0 | nt | 3.3
CC(NC(=O)Cc1ccsc1)c1ccc(Cl)cc1Cl (centres undefined) | 0.0 | -28.9 | -0.7 | 13.6 | -1.0 | -40.7 | -9.7 | -10.0 | -7.0 | nt
FC(F)(F)Oc1ccc(Nc2nc(N3CCOCC3)nc(N3CCOCC3)n2)cc1 | 2.2 | 7.2 | 2.3 | 19.7 | 2.4 | 8.8 | -0.6 | 13.2 | -1.1 | -2.1
Cc1c(C(=O)NCCCc2ccccc2)cccc1[N+](=O)[O-] | 2.1 | -11.5 | 1.4 | 0.9 | 5.6 | 5.8 | -6.7 | -1.6 | 0.2 | -2.3
OC1(c2ccccn2)COc2ccccc2O1 (centres undefined) | 3.4 | 0.8 | 1.7 | 9.0 | 4.0 | 9.2 | -1.4 | 1.4 | -1.9 | 2.4
Cc1ccc(SCC(=O)N2CCc3ccccc32)cc1 | -7.6 | -19.6 | 0.1 | 2.7 | nt | nt | nt | -3.8 | 5.5 | -17.5
COc1ccc(CCNc2nnc(C)c(=O)[nH]2)cc1OC | 0.5 | 7.4 | -0.2 | -25.9 | nt | nt | nt | -3.1 | -9.2 | -5.2
NC(=O)C1CCCN(C(=S)Nc2ccccc2)C1 (centres undefined) | -2.1 | -6.7 | -0.5 | -30.0 | 20.6 | 19.3 | 3.0 | -2.7 | -3.9 | -4.1
CCOc1ccc(CNCCCSc2ncccn2)cc1OC | -1.6 | -6.7 | 0.1 | 53.8 | -1.3 | 2.8 | 4.6 | -2.9 | 0.4 | nt
O=C(c1nn(Cc2ccccc2)c(=O)c2ccccc12)N1CCc2ccccc2C1 | -3.9 | -2.5 | 0.4 | 5.6 | nt | nt | nt | -2.6 | -7.8 | -3.4
COc1cccc(CNC(=O)CCNS(=O)(=O)c2ccc(Br)s2)c1 | -4.0 | 4.6 | 0.4 | -7.6 | nt | nt | nt | -10.8 | -0.1 | 1.6
O=C(C1CC1)N1CCN(c2ccc([N+](=O)[O-])cc2)CC1 | 0.0 | 3.3 | 0.8 | -7.5 | -13.2 | -12.8 | 0.3 | -2.9 | -2.1 | nt
O=C(O)c1ccccc1C(=O)Nc1ccc(-c2csc(-c3ccccc3)n2)cc1 | -3.5 | -0.4 | -1.4 | -8.2 | nt | nt | nt | -2.9 | -4.0 | 98.6*
Cn1ncc2c1ncn1nc(CCc3ccccc3)nc21 | -3.2 | -0.3 | -2.0 | -4.7 | 11.4 | -1.6 | 2.7 | 1.0 | 6.8 | 3.9
CCn1c(SCC(=O)c2cc(C)n(C)c2C)nnc1-c1ccccc1 | 2.0 | -1.4 | 0.1 | 12.4 | nt | nt | nt | -1.6 | 1.2 | 3.5
O=C(c1ccc(COc2ccccc2)o1)N1CCN(S(=O)(=O)c2ccccc2Cl)CC1 | -2.9 | nt | 0.7 | nt | -5.7 | -14.6 | 3.8 | 6.1 | 0.0 | 1.4
c1ccc(CN2CCC(Nc3nc(-c4cccs4)nc4ccccc34)CC2)cc1 | -0.6 | 17.3 | -0.4 | 49.8 | -56.1 | -77.1 | -23.1 | 13.4 | 24.0 | -3.6
CCOC(=O)N1CCN(C(=O)CS(=O)(=O)c2cn(Cc3cccc(F)c3)c3ccccc23)CC1 | -1.0 | -3.1 | -0.1 | 3.7 | nt | nt | nt | -1.8 | 8.8 | -2.5
CC(C)C12CN(C(=O)c3ccccc3[N+](=O)[O-])CC(C(C)C)(CN(C(=O)c3ccccc3[N+](=O)[O-])C1)C2=O | -0.8 | 3.1 | -0.2 | nt | nt | nt | nt | 5.4 | 0.9 | -4.0
CCC(CC)NC(=O)Nc1ccccc1C | 0.0 | -6.1 | -0.3 | -10.2 | 19.9 | 8.0 | 3.3 | -2.4 | -1.4 | nt
O=C1CC(Nc2ccc(N3CCOCC3)cc2)C(=O)N1c1cccc(C(F)(F)F)c1 (centres undefined) | 3.5 | 3.7 | 0.3 | -4.8 | nt | nt | nt | 5.5 | -2.7 | nt
COC(=O)c1[nH]c2ccc(F)cc2c1NC(=O)Nc1ccc(OC)cc1 | -5.4 | 4.3 | 0.1 | 4.4 | nt | nt | nt | 3.1 | -2.3 | -1.5
O=C(C(c1ccccc1)c1ccccc1)N1CCN(CC(O)COc2ccccc2)CC1 (centres undefined) | -4.3 | 51.6 | -0.1 | -8.9 | nt | nt | nt | 9.1 | 1.0 | nt
CCCCC(=O)NS(=O)(=O)c1ccc(NS(C)(=O)=O)cc1 | 3.4 | -4.0 | 0.1 | -8.8 | 0.8 | 14.8 | -13.3 | 3.2 | -0.5 | -2.0
COc1ccc(C(OC(=O)c2ccco2)C(=O)NCC2CCCO2)cc1 (centres undefined) | 2.3 | 6.4 | 0.2 | -4.1 | nt | nt | nt | -2.5 | -2.6 | -9.0
COC(=O)c1nn(-c2ccccc2)c(Cl)c1/C=N/OC(=O)c1ccc(Cl)c(Cl)c1 | -0.4 | -15.7 | 0.4 | -14.6 | nt | nt | nt | 3.9 | -2.0 | -8.2
O=C(CCS(=O)(=O)Cc1ccccc1)NC1CCCCC1 | -2.8 | -10.9 | 0.7 | -1.8 | nt | nt | nt | 9.4 | -8.2 | -8.0
COc1cc(CN(C)CC2CCCN(CCc3cccc(C(F)(F)F)c3)C2)ccc1O (centres undefined) | -2.2 | 1.6 | 0.2 | 38.8 | 2.1 | 2.6 | -0.5 | 7.8 | 0.1 | 3.5
CC(=O)c1c(C(C)=O)c(C)n(-c2nc(-c3ccc(C)c(C)c3)c(C)s2)c1C | -1.9 | 9.9 | 1.1 | 1.7 | nt | nt | nt | 6.3 | -1.2 | 33.6
COc1ccc(C2c3sc(=O)[nH]c3SC3C4CCC(C4)C23)cc1 (centres undefined) | -3.1 | -8.5 | 0.0 | -2.2 | nt | nt | nt | 3.0 | 2.5 | nt
O=C(O)c1ccc(-c2nc(-c3ccc(Cl)cc3Cl)cs2)cc1 | -4.1 | 44.4 | -1.3 | 31.4 | -15.9 | -12.2 | -5.4 | 13.2 | -7.4 | 5.3
Cc1noc(C)c1S(=O)(=O)NCc1ccc(CN(C)C)cc1 | 3.9 | nt | -0.2 | nt | 2.2 | 6.5 | -1.5 | -6.1 | -3.7 | -2.8
COc1ccccc1-n1c(SCC(=O)NC2CCCCC2)nc2c(c1=O)SCC2 | -2.0 | 2.3 | 0.4 | 19.7 | -2.9 | -6.3 | -3.1 | -2.6 | -1.7 | 1.9
CCn1c(-c2cccs2)nc2ccccc21 | 1.8 | -12.8 | -0.7 | -9.6 | nt | nt | nt | -0.3 | 1.2 | 6.7
Cc1ccc(NC(=O)CN(c2ccc(C)cc2)S(=O)(=O)c2cccc3nonc23)cc1 | 0.2 | 4.5 | 0.5 | -0.9 | -23.9 | -24.1 | 0.0 | 2.0 | 5.7 | -2.3
Cc1cc2c(c(=O)n1CCN(C)C)C(c1ccncc1)C(C#N)=C(N)O2 (centres undefined) | 0.1 | -3.2 | -1.8 | -5.2 | nt | nt | nt | 5.7 | -3.8 | -5.2
O=C(Nc1cccc(NC(=O)c2cc([N+](=O)[O-])ccc2Cl)n1)c1cc([N+](=O)[O-])ccc1Cl | -1.1 | 1.5 | 0.4 | 15.0 | nt | nt | nt | 7.0 | 104.1* | 4.8
CCN(C(=O)CSc1nnc(C2CC2)n1-c1ccccc1)C1CCS(=O)(=O)C1 (centres undefined) | 1.6 | nt | 0.9 | nt | nt | nt | nt | 2.1 | -4.5 | 3.3
Cc1ccc(S(=O)(=O)Nc2ccc3cn[nH]c3c2)cc1 | -18.4 | nt | -0.2 | nt | -12.2 | -7.3 | 2.0 | 4.6 | 2.6 | 2.4

Screening results deposited in PubChem by several laboratories.
